Mtb bLac sens – beta-lactam sensitization of Mtb H37Rv | M. tuberculosis H37Rv growth with meropenem, percent inhibition; hits of this screen are not shown here | AID 434955 | 330,000 tested, 0.27% active | inhibition, % at 25 µM;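 active = about 74% or more and at least 40 points above the plate without the antibiotic, then above 30% in a dose series; inconclusive = first-round hits that could not be retested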;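 also: growth measured after seven days incubation then overnight dye step; 0% = bacteria only wells and 100% = bacteria with antibiotic; twin plates without the antibiotic show which effects depend on it; some results filed as inactive read as strong as hits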
YopH inh – YopH (Yersinia) phosphatase inhibition | AID 898 | fluorescence Ex485/Em525 | 140,000 tested, 0.16% active | inhibition, %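 (about 10 µM by stock and volumes)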;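 active = inhibition of 50% or more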;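 also: controls were vehicle for no effect and minimum signal wells for full effect; inactives centre near -20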
Arbovirus anti – blocks arbovirus infection; arbovirus infection cell-based antiviral screen; inhibition, % at 10 µM; 200,000 tested, 0.37% active; AID 1251;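 active = inhibition from about 30%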;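 also: bluetongue infection of BSR cells; cell survival read as ATP light after 72 h; 0% = infected wells without compound and 100% = uninfected wells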
RecA intein inh – blocks M. tuberculosis RecA intein splicing; inhibition, %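 (about 9 µM by stock and volumes)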; 290,000 tested, 0.75% active; cell-free RecA intein splicing, fluorescence; P9WHJ3; in the data active = inhibition above about 30%; inconclusive = no clear call, values can overlap the other calls;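 also: 0% = vehicle wells and 100% = reference inhibitor control wells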
Target sequence (P9WHJ3 whole entry, looked up): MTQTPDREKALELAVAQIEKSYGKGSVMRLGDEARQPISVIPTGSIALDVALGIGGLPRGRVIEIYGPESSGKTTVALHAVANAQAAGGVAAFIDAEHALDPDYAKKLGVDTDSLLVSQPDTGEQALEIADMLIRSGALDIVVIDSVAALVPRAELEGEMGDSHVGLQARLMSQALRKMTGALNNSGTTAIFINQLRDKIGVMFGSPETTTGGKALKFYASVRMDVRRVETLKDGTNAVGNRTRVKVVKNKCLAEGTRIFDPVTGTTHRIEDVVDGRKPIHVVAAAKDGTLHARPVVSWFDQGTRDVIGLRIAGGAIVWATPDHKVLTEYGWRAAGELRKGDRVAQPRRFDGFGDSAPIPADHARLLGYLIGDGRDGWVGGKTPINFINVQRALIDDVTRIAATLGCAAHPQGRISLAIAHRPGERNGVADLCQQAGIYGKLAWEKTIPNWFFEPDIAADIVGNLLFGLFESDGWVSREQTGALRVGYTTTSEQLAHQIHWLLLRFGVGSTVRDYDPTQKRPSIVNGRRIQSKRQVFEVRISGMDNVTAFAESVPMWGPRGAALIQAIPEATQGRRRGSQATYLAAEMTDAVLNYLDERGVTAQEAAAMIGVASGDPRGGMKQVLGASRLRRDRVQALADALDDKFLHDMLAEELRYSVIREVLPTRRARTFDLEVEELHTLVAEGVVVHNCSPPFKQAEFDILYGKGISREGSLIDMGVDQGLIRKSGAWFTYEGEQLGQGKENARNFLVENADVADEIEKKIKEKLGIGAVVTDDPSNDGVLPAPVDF
Mtb growth – M. tuberculosis H37Rv growth inhibitors, H37Rv strain (AID 1626); M. tuberculosis H37Rv growth inhibition; higher % means a stronger effect; inhibition, % at 10 µM, or IC50 in µM where a hit was titrated; 220,000 tested, 0.95% active;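 active = confirmed in a dose series; inconclusive = inhibition above 80% but not taken into the dose series; inactive = below 80% or under 30% at every dose of the series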;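 also: bacteria incubated seven days before Alamar blue readout; 0% = bacteria only wells and 100% = bacteria with antibiotic wells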
Arbovirus anti repeat – also measured in Arbovirus anti; calls as there; inhibition, %; measured here: 10K subset replicate screen; many hits read low in the repeat;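 first of two repeat runs on a subset; 0% = infected and 100% = uninfected wells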
* marks the source's active call; other numbers are inactive results; ? = inconclusive; nt = no result given.

SMILES | Mtb bLac sens | YopH inh | Arbovirus anti | RecA intein inh | Mtb growth | others
COc1ccc(C(C(=O)NC2CCCCC2)N(C(=O)Cc2c[nH]c3ccccc23)c2ccc(NC(C)=O)cc2)cc1OC (stereo not given) | -20.0 | 2.2 | -1.1 | 1.7 | -5.8%
COc1ccccc1NC(=O)COC(=O)c1ccccc1OCC(=O)Nc1ccc(SC(F)F)cc1 | 2.8 | -18.6 | -8.5 | -9.5 | 1.1%
COc1ccc(C(=O)c2nc3c(n2O)CCCCC3)cc1 | 0.6 | -15.1 | -1.4 | 0.2 | 9.0%
CC(=O)c1cnc(Oc2cc(Cl)ccc2Cl)nc1C | -1.4 | nt | nt | -0.1 | nt
CC12CCC(C(=O)N(CC(O)CN3CCCCCC3)C1=O)C2(C)C (stereo not given) | -3.5 | -4.8 | -6.5 | 0.8 | -2.5%
Cc1cc(C(=O)COC(=O)c2n[nH]c3ccccc23)c(C)n1CC1CCCO1 (stereo not given) | -4.0 | -9.2 | 16.1 | -1.6 | -12.8%
COc1ccc(CN2CCN(Cc3cc4ccccc4o3)CC2CCO)c(F)c1 (stereo not given) | -2.8 | nt | nt | 1.4 | nt
CN(C)c1ccc(/C=C2/C(=O)NC(=O)N(CCc3ccc(F)cc3)C2=O)cc1 | 4.4 | 11.3 | 1.8 | -1.2 | -7.0%
CNS(=O)(=O)c1ccc(NC(=O)c2csc(C)c2)cc1 | -7.8 | nt | nt | 1.9 | nt
CC1CC(C)CN(C(=O)COC(=O)c2cc([N+](=O)[O-])ccc2N2CCOCC2)C1 (stereo not given) | 5.8 | nt | nt | -0.6 | nt
O=C1c2ccccc2NC(c2ccccc2)N1Cc1ccccc1 (stereo not given) | -8.3 | nt | nt | 5.6 | nt
O=S(=O)(c1ccccc1)c1nc(Cc2ccccc2)oc1N1CCOCC1 | -3.7 | nt | nt | 4.2 | nt
COCc1c(C(=O)OCC(=O)N2c3ccccc3NC(=O)C2(C)C)oc2ccccc12 | nt | -22.6 | -6.5 | nt | -1.1%
Cc1ccc(C23CC4CC(CC(C(=O)NC(C)C(=O)O)(C4)C2)C3)cc1 (stereo not given) | 7.9 | nt | nt | 0.1 | nt
COc1cccc(NC(=O)CN(c2ccc(C)cc2)S(=O)(=O)c2c(C)nn(C)c2C)c1 | 2.3 | -26.9 | -2.3 | 1.9 | -5.0%
COc1ccc(OCC(=O)Nc2cc(NC(=O)COc3ccc(OC)cc3)cc(C(=O)O)c2)cc1 | -9.0 | nt | nt | -2.5 | nt
O=C(CN1C(=O)S/C(=C\c2ccccc2Cl)C1=O)NC1C=CS(=O)(=O)C1 (stereo not given) | 6.0 | nt | nt | -1.4 | nt
COc1ccc(CCN(C)Cc2nc(Cc3ccc(OC)c(OC)c3)no2)cc1OC | -2.1 | nt | 11.0 | -0.4 | 1.9%
Cc1ccc(NN2C(=O)C=C(c3ccc(Cl)cc3)C2=O)cc1 | 99.8 | -23.4 | -14.1 | 0.0 | 78.9%
Cc1ccc(-c2nnn(CC(=O)N(CCCO)C(C(=O)NC3CCCC3)c3ccc(F)cc3)n2)o1 (stereo not given) | -1.2 | nt | nt | 0.5 | nt
O=C(c1nc2ccccn2c1CNCCCn1ncc2ccccc21)N1CCOCC1 | 1.0 | nt | 8.4 | 5.8 | 1.2%
Cn1c(=O)c2c(nc(N3CCCCCC3)n2CCSc2nc3ccccc3o2)n(C)c1=O | -1.5 | 0.3 | 7.6 | -0.2 | 1.8% | Arbovirus anti repeat=5.6
CC1CCCCN1CC(=O)Nc1sccc1C#N (stereo not given) | -12.3 | -15.4 | -1.2 | 2.6 | -5.6%
O=C1NC2(CCCCC2)N=C1c1ccc(Br)cc1 | 0.8 | -13.1 | 6.2 | -4.7 | -0.1%
Cc1ccc(NC(=O)c2csc(-c3ccccc3)c2C)cc1 | nt | -43.9 | 2.1 | nt | -0.3%
CC(=O)CC1(O)C(=O)Nc2ccccc21 (stereo not given) | -12.6 | nt | nt | 0.0 | -1.5%
Cc1cccc([C@@H]2[C@@H]3C(=O)N(Cc4ccccc4)C(=O)[C@@H]3[C@]3(C)C(=O)N(c4cccc(F)c4)C(=O)N23)c1 | -7.8 | nt | nt | -3.7 | nt
COc1ccc(C2=Nc3cccc4cccc(c34)N2)cc1 | 5.4 | -21.2 | -2.5 | -1.0 | nt
Cc1[nH]nc2c1C(c1ccc(N(C)C)cc1)C1=C(CC(C)(C)CC1=O)N2 (stereo not given) | -0.1 | nt | -4.4 | 0.2 | -3.6%
CC(C)OCCCNCC(O)c1ccccc1 (stereo not given) | -11.2 | -4.7 | -7.2 | -5.7 | 6.0%
O=C(CNc1ccc(Br)cc1)c1ccccc1 | -8.2 | -36.6 | -22.9 | -3.4 | -1.1%
Cc1oc(-c2ccccc2Cl)nc1CS(=O)CC(=O)NCc1ccc2c(c1)OCO2 (stereo not given) | 0.8 | nt | nt | 0.1 | nt
Cc1ccc(S(=O)(=O)CC#CCOC(=O)c2ccc([N+](=O)[O-])cc2)cc1 | 89.4 | -21.3 | 0.1 | 15.3 | -0.1%
COC(=O)c1c(NC(=S)NC(=O)c2ccco2)sc2c1CCCC2 | 7.6 | -39.8 | -5.5 | -1.4 | 9.5%
Cc1cc(C)nc(/N=C(\N)Nc2cc([N+](=O)[O-])ccc2C)n1 | -12.3 | -44.1 | 2.9 | 5.0 | -12.5%
Cc1cc(C)nc(NCCCc2ccccc2)n1 | 13.7 | -41.9 | -2.3 | 0.2 | 4.0%
CCOc1ccc(NC(=O)C2CC(=O)N(c3cc(C)cc(C)c3)C2)cc1 (stereo not given) | 7.5 | -40.1 | 4.8 | 0.5 | -13.4%
O=C(O)/C=C(\Oc1ccccc1)C1(O)CCCCC1 | -4.3 | nt | nt | -1.4 | -4.7%
NC1CCN(c2cccc(Cl)n2)CC1 | -4.4 | nt | nt | -1.7 | -11.9%
COC(=O)CCC(=O)Nc1nccs1 | 5.9 | nt | -2.4 | -1.4 | -8.8%
CC(C(=O)NC1CCCC1)N(c1ccc(Oc2ccccc2)cc1)S(C)(=O)=O (stereo not given) | -10.0 | nt | 3.9 | -0.5 | 8.0%
CCCCn1c(-c2nn(C)cc2Cl)n[nH]c1=S | 0.3 | -21.7 | 5.9 | nt | -1.7%
CCOc1ccc(CNC(=O)C2CCCN(S(C)(=O)=O)C2)cc1OC (stereo not given) | -3.0 | -20.4 | 8.8 | 4.0 | -1.8%
COC(=O)C(O)(c1ccc(N(C)C(=O)OC(C)C)cc1)C(F)(F)F (stereo not given) | 2.7 | 8.1 | -1.5 | 0.4 | -12.1%
COc1ccc(NC(=O)Nc2ccon2)cc1OC | 1.7 | nt | nt | -4.0 | nt
Cc1ccc(-n2nc3c(=O)n(CC(=O)NCc4cccs4)nc(C)c3c2C)cc1 | 2.8 | nt | nt | -3.9 | nt
CSc1ccc(NC(=O)NCc2ccccc2)cc1 | -5.4 | nt | nt | 3.0 | -1.9%
O=C(NCCS(=O)(=O)NC1CCCCC1)c1ccccc1 | -4.8 | nt | nt | -0.2 | nt
Cc1[nH]c2ccccc2c1SCC(=O)N1CCN(c2ccccc2)CC1 | 5.5 | -34.5 | -3.5 | -1.0 | 5.0%
O=C(O)C1CCCN1S(=O)(=O)c1ccc2c(c1)CCC2 (stereo not given) | 6.8 | -46.8 | 0.3 | 6.4 | -1.5%
COc1ccc2c(c1)C(c1ccccc1)NC(=O)C2 (stereo not given) | -0.7 | nt | nt | 6.2 | nt
CC(=O)N/C(=C\c1ccccc1)C(=O)OCc1cc(C)ccc1C | 2.6 | nt | nt | 0.4 | nt
O=C(O)c1cccc(N(CCO)CCO)c1 | -4.9 | nt | nt | -3.8 | -5.2%
O=C(Cn1c(=O)c2c(ncn2Cc2ccccc2)n(Cc2ccccc2)c1=O)N1CCc2ccccc21 | -4.5 | -21.2 | -4.2 | nt | 7.3%
CC(=O)Nc1ccc(SCC(=O)Nc2oc(C)c3c(C)n[nH]c(=O)c23)cc1 | -4.1 | nt | nt | -5.4 | nt
CCN(CC(=O)Nc1c(F)cccc1F)C(=O)CCc1nc2cc(S(=O)(=O)N3CCOCC3)ccc2n1C | -8.3 | nt | nt | -1.2 | nt
CCc1ccc(S(=O)(=O)Nc2cc3c(cc2N2CCOCC2)n(C)c(=O)c(=O)n3C)cc1 | 2.1 | nt | nt | -3.2 | nt
CCN(C(=O)CSc1nncs1)c1c(N)n(Cc2ccccc2)c(=O)[nH]c1=O | -3.1 | -46.0 | 11.8 | -1.0 | -14.4%
COCCCNC(=S)Nc1ccc(N2CCCCC2)cc1 | 1.8 | nt | -3.1 | -4.3 | -1.8%
O=[N+]([O-])c1ccc2nc(-c3ccc(OC(F)F)cc3)cn2c1 | 46.1 | nt | -10.7 | -0.7 | 10.7%

Next part:
SMILES | Mtb bLac sens | YopH inh | Arbovirus anti | RecA intein inh | Mtb growth | others
Cc1cc(=O)oc2c(C)c(OCC(=O)NC3CC(C)(C)NC(C)(C)C3)ccc12 | 4.9 | nt | nt | -3.6 | nt
CCN(CCCNC(=O)C1CCC(=O)N1C1CCCC1)c1cccc(C)c1 (stereo not given) | -8.7 | -41.7 | 3.3 | 2.0 | 0.3%
COc1ccccc1Nc1ncccc1C(=O)O | 3.2 | -28.0 | 0.9 | -1.1 | 2.9%
CNC(=O)CSc1nc2cccnc2n1C1CCCCC1 | -6.2 | nt | nt | 1.8 | nt
Cc1n[nH]c(=S)n1/N=C/c1ccc(OCc2ccc(Cl)cc2)cc1 | 14.2 | -44.8 | -1.2 | 0.7 | 1.2%
COc1ccc(-c2noc(=O)[nH]2)cc1 | 2.7 | -29.4 | 1.8 | -1.2 | -9.8%
O=C(O)CSCc1cnn(-c2ccccc2)c1-n1cccc1 | nt | -31.1 | 2.0 | 0.0 | -5.5%
Nc1ccc(S(=O)(=O)N2CCCC2)cc1 | -2.1 | -53.5 | 1.3 | 0.1 | -4.6%
O=C(c1ccc2c(c1)[nH]c(=S)n1c3ccccc3nc21)N1CCN(c2ncccn2)CC1 | 4.0 | -167.8 | 10.1 | 1.8 | -5.0%
CCCc1cc(=O)oc2cc(C)cc(OCC(=O)NC3CC3)c12 | -2.3 | nt | nt | -2.7 | nt
O=C1C(Cc2ccccc2)Nc2ncnc(N3CCOCC3)c2N1Cc1ccc(Br)cc1 (stereo not given) | -1.1 | nt | nt | 1.6 | nt
COc1ccc2c(CC(=O)OCC(=O)Nc3ccccc3[N+](=O)[O-])coc2c1 | 7.3 | -29.4 | -5.8 | 1.4 | 3.9%
Cc1cc(C)cc(C(=O)N(CCc2ccccc2)C2=CC3CCC(C2)N3C)c1 (stereo not given) | 1.4 | nt | -8.0 | 0.1 | 3.7%
Cc1nn(C)c(NC(=O)c2ccc([N+](=O)[O-])cc2)c1Cl | -6.8 | nt | nt | 0.6 | -8.6%
COc1ccc(N2C(=O)/C(=C/C=C/c3ccccc3[N+](=O)[O-])C(=O)NC2=S)cc1 | nt | nt | -34.8 | -3.1 | 2.5%
CCOC(=O)C1C(=O)CC(C)(O)C(C(=O)OCC)C1/C=C/c1ccccc1 (stereo not given) | nt | -5.9 | 2.5 | -0.5 | 7.4% | Arbovirus anti repeat=2.0
CCc1ccc(N/C(SCc2cccc(F)c2)=C(/C#N)C(=O)NCc2ccco2)cc1 | -0.2 | -33.2 | -1.1 | 1.7 | 13.6%
CC(=O)c1ccc(NC(=O)C(C)Sc2nnc(C3CCCCC3)o2)cc1 (stereo not given) | -6.0 | nt | nt | 1.9 | nt
CSc1nnc(N2C(=O)C(O)=C(C(=O)c3ccco3)C2c2cccc(Cl)c2)s1 (stereo not given) | ? | nt | nt | -3.8 | nt
Cc1cc(C)c2c(-n3cccc3)c(C(=O)NNS(=O)(=O)c3ccccc3)sc2n1 | 2.1 | -14.2 | 10.1 | -8.8 | 0.6%
CCc1ccc(CN(C)C(=O)C2CCC(=O)N(CCc3ccc(OC)cc3)C2)nc1 (stereo not given) | -2.1 | nt | nt | 1.0 | nt
CN1CCN(c2cn[nH]c(=O)c2Cl)CC1 | -9.7 | nt | -5.9 | nt | -3.6%

Pulled one by one from above:
SMILES | Mtb bLac sens | YopH inh | Arbovirus anti | RecA intein inh | Mtb growth | others
Cc1cc(C)c2c(-n3cccc3)c(C(=O)NNS(=O)(=O)c3ccccc3)sc2n1 | 2.1 | -14.2 | 10.1 | -8.8 | 0.6%
CC(=O)c1ccc(NC(=O)C(C)Sc2nnc(C3CCCCC3)o2)cc1 (stereo not given) | -6.0 | nt | nt | 1.9 | nt
CSc1nnc(N2C(=O)C(O)=C(C(=O)c3ccco3)C2c2cccc(Cl)c2)s1 (stereo not given) | ? | nt | nt | -3.8 | nt
CCc1ccc(CN(C)C(=O)C2CCC(=O)N(CCc3ccc(OC)cc3)C2)nc1 (stereo not given) | -2.1 | nt | nt | 1.0 | nt
CN1CCN(c2cn[nH]c(=O)c2Cl)CC1 | -9.7 | nt | -5.9 | nt | -3.6%

Only part of the results is shown, so the mix of outcomes need not match the whole.
